Screening data: PubChem BioAssay, several laboratories
RanGTP-Imp inh – inhibitors of RanGTP-importin-beta interaction, primary screen, biochemical, FRET, CFP-Ran, YFP-importin-beta, homogeneous; cell-free CFP-Ran/YFP-importin-beta FRET ratio; inhibition, % (no concentration beside the values); hit rate 1.1% among 300,000; AID 2216, 2009;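 active means most replicates above 15%; inconclusive means exactly half above 15%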;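 further: 0% = DMSO wells and 100% = Ran loaded with GDP instead of GTP; wells of about 40 µL received 100 nL stock; the first replicate is given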
Vif A3G – inhibitors of Vif binding to APOBEC3G peptide, primary screen, biochemical, TR-FRET, GST-Vif 1-94, biotin-A3G peptide, dose response retest (AID 1117319). hit rate 0.57% among 260,000. TR-FRET GST-Vif / biotin-A3G peptide binding; higher % means a stronger effect; test concentration not given here; strong numbers were not always called active. Virion infectivity factor (Human immunodeficiency virus type 1 group M subtype B (isolate …. one-dose inhibition, %; IC50 in µM for titrated hits;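 active means above the screen mean plus three standard deviations and confirmed in dose response; inconclusive means results disagree or hit not tested in dose response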;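 further: Vif residues 1-94 fused to GST binding biotinylated APOBEC3G peptide 110-148; 0% = full assay without inhibitor and 100% = GST in place of GST-Vif; retest series ran down from 100 µM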
A1 inh – caspase 3/7 activation in MEF A1-2A-BIM cells, primary screen, A1 inhibitor project, cell-based, luminescence, HTS; hit rate 0.066% among 330,000; AID 2462, 2010; caspase activation, % (no concentration beside the values); Caspase-Glo 3/7 luminescence, 3 h; percent of clofoctol response, vehicle zero;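 active means over half of replicate activation scores above 10%, or exactly half above 10 with the replicate mean above 10; inconclusive means replicate mean below 10 yet half the replicates above 10; inactive means over half of replicates below 10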;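 further: wells of about 30 µL received 50 nL stock; many hits fall short of the cut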
Beta cell apopt – inhibitors of cytokine-induced beta cell apoptosis, primary screen, luminescence; protection from apoptosis, % (no concentration beside the values); INS-1E cytokine-induced death, ATP luminescence, 48 h; percent of positive-control rescue, neutral wells zero; hit rate 0.8% among 300,000;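 active means all replicates at 75% or more, or half of them and the mean; inconclusive means half reach 75% but not the mean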;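 further: 0% = cytokine-treated negative control wells and 100% = positive control rescue; higher means more ATP so stronger rescue from cytokine killing; wells of about 40 µL received 100 nL stock; the first replicate is given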
AF4-AF9 inh – inhibitors of AF4 peptide binding to AF9, primary screen, biochemical, AlphaScreen, biotin-AF4 peptide, FLAG-AF9, single point | inhibition, % at 10 µM | hit rate 0.47% among 350,000 | AID 651704, 2012;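 active means every replicate reaching a set inhibition limit, whatever the replicate mean, cut at about 25% in these data; inconclusive means mean inhibition reaches that limit but some replicates miss it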;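 further: 0% = plate neutral control median and 100% = total signal loss; the record names both 10 and 1 µM as test concentration; the first replicate is given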
LANA-H2B inh – blockers of LANA interaction with H2A/H2B – biochemical, FP readout, HTS, primary screen. Protein LANA1 (Human herpesvirus 8 type P (isolate GK18)), Q9QR71. cell-free LANA-H2A/H2B peptide, fluorescence polarization. inhibition, % (concentration not given with the values). hit rate 0.6% among 320,000; in the data active means inhibition mostly above about 10%, no sharp cut-off; inactive means mostly below about 6.7%;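 further: stock transfer was 7.5 nL into about 10 µL; 0% = median of vehicle wells and 100% = median of positive control wells; one replicate is shown; the record names a cut of 25% in any replicate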
Target sequence (Q9QR71 whole entry, looked up): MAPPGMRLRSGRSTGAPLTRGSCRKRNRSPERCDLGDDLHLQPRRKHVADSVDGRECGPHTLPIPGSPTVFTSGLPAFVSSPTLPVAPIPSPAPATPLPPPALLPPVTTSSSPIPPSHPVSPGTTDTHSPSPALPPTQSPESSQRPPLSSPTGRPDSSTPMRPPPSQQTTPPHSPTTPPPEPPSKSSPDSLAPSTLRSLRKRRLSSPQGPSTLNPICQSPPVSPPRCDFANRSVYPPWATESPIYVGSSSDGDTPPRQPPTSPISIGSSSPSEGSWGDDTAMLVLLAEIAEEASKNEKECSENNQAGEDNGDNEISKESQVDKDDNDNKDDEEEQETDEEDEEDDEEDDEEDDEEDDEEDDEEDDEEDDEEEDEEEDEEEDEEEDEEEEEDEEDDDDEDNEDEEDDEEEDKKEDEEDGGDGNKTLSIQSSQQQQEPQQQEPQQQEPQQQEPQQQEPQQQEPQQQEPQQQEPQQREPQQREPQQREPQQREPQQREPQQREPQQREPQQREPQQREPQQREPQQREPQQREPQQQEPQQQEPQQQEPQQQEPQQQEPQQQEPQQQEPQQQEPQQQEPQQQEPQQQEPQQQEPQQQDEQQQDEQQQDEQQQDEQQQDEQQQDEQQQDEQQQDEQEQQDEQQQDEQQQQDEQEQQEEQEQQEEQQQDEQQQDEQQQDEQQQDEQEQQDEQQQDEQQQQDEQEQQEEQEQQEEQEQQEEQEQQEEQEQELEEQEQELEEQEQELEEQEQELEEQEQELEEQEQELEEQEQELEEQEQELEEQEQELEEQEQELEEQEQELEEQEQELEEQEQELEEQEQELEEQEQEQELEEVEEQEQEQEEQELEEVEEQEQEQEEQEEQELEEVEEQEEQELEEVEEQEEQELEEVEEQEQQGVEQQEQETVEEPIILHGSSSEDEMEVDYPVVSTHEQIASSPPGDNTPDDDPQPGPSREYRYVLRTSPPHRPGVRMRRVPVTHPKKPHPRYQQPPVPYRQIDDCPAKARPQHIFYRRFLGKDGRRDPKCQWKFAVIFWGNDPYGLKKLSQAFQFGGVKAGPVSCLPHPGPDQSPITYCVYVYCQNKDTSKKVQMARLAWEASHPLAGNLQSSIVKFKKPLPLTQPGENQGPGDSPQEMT
T cruzi repl – inhibitors of intracellular T. cruzi growth, primary screen, luminescence, NIH3T3 host cells; T. cruzi beta-gal in NIH3T3, 90 h; hit rate 1.4% among 300,000; inhibition, % (test concentration not listed);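 active means mean inhibition across valid replicates above about 55%, limit read from the data; inconclusive means mean below that limit but half or more replicates reach it; inactive means mean below it, under half of replicates reach it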;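 further: signal also drops with host cell toxicity which is not excluded here; 0% = plate median of DMSO wells and 100% = zero luminescence signal; higher percent means less beta-gal luminescence so fewer parasites; stock transfer was 50 nL into about 50 µL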
Calb FLC – C. albicans growth inhibition with fluconazole, primary screen, CaCi-2 strain, Alamar Blue fluorescence; C. albicans CaCi-2 (fluconazole-resistant clinical isolate) + fluconazole, 48 h; growth inhibition, % (concentration not given with the values); hit rate 0.57% among 300,000; AID 1979, 2009;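 active means most replicates above 75%; inconclusive means exactly half above 75%; inactive means most below 75%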;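 further: all wells also contain fluconazole at 8 µg/ml as a sub-toxic cotreatment; 0% = median of DMSO wells and 100% = median of geldanamycin control wells; wells of about 8 µL received 7.5 nL stock; the first replicate is given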
Numbers without * were called inactive; ? = inconclusive; · = no result given.

SMILES	RanGTP-Imp inh	Vif A3G	A1 inh	Beta cell apopt	AF4-AF9 inh	LANA-H2B inh	T cruzi repl	Calb FLC
CCOC(=O)/C=C/C(=O)OCC(=O)Nc1cccc(Cl)c1Cl	-9.1	-3%	1.8	-1	-0.6	-2.1	-15	-5
O=S(=O)(Nc1ccccn1)c1ccc(Br)cc1	?	2%	0.1	-7	-1.5	2.5	2	5
Cc1ccc(C(=O)O)cc1NS(=O)(=O)c1ccc2c(c1)oc(=O)n2C	5.2	-1%	1.0	0	-2.9	0.9	-7	-11
COc1cccc(NC(=O)COc2cc(C)cc3oc(=O)cc(C)c23)c1	0.8	·	0.6	11	1.5	-4.7	0	-8
O=C(Cn1cccc1C(=O)c1ccccc1)NCc1ccco1	2.0	-6%	0.0	0	·	-3.1	2	-4
COCCOC(=O)C(C#N)c1nc2ccccc2nc1N1CCCC1 (stereo not given)	9.0	2%	0.2	0	·	3.3	9	-3
Cc1ccc(SC(CC(=O)c2ccc(F)cc2)C(=O)O)cc1 (stereo not given)	1.2	7%	-0.2	·	-4.2	-4.0	1	-3
COc1cc(/C=C2/CC/C(=C/c3ccc(O)c(OC)c3)C2=O)ccc1O	-60	32%	-1.3	15	·	-24	-4	-8
CCOc1cccc(-c2cc(C(=O)NN)[nH]n2)c1	-11	1%	1.0	-6	-1.3	-3.2	-13	3
CS(=O)(=O)N(CC(N)=O)c1ccc2c(c1)OCO2	5.4	?	-0.6	-2	·	-0.8	-9	-3
O=C(Cc1ccccc1)N/N=C/c1ccc[nH]1	4.0	-3%	-0.1	·	0.6	5.8	-10	-2
CCOc1ccccc1NC(=O)C(=O)N/N=C/c1cc(Br)ccc1O	3.0	-13%	-0.8	88*	1.0	-0.4	63*	108*
O=C(O)COc1ccccc1C(Nc1cccnc1)c1cc(Cl)c2cccnc2c1O (stereo not given)	-0.9	-2%	·	·	·	·	-23	100*
CCOc1ccc(C(=O)NC2CCCCCCC2)cc1	0.6	·	-5.7	·	-0.3	6.6	-5	7
CC1CN(C(=O)COC(=O)/C=C/c2cccc([N+](=O)[O-])c2)CC(C)O1 (stereo not given)	·	·	-1.0	0	?	0.3	·	·
Cc1cc(C(=O)NC2CCCCC2)c2cc(F)ccc2n1	-1.5	8%	-0.2	1	-1.7	1.8	0	8
Cc1ccccc1Cn1cc(NC(=O)c2cc(-c3cccs3)on2)cn1	0.9	-8%	1.2	32	·	0.4	11	-20
COc1ccc(C(=O)N2CCCC(Nc3ccc(C)c(C)c3)C2)c(OC)n1 (stereo not given)	?	9%	-0.2	-5	5.8	-3.6	-2	8
CC(Oc1ccc(C(C)(C)C)cc1)C(=O)NCC(c1ccco1)N1CCCC1 (stereo not given)	·	-8%	1.0	-4	-0.7	-3.7	·	·
COc1ccc(OC)c(NC(=O)CCCNC(=O)Cn2cnc3sc(C)c(C)c3c2=O)c1	2.5	·	0.0	0	-0.5	5.3	0	-4
Cc1nc(NC(=O)c2cncc(Br)c2)ccc1Br	-0.1	·	-1.2	10	-6.1	-6.8	-10	-11
O=Cc1ccc(Oc2cccc(C(F)(F)F)c2)nc1	2.7	5%	0.1	-6	-0.3	-3.2	-6	27
Cc1ccc(Cl)cc1N1CCN(C(=S)NCCc2ccccc2)CC1	-3.5	-3%	-0.2	-7	-2.4	-2.3	22	-13
CC1=C(C)CC(C(=O)Nc2ccc(C(=O)N3CCOCC3)cc2)C(C(=O)O)C1 (stereo not given)	3.4	-4%	0.1	-1	-1.5	3.5	2	-2
COc1ccccc1CNC(=O)c1ccc(OC(C)C)cc1	1.8	-2%	0.0	-1	-0.1	0.0	7	-4

Remaining list, next part.
SMILES	RanGTP-Imp inh	Vif A3G	A1 inh	Beta cell apopt	AF4-AF9 inh	LANA-H2B inh	T cruzi repl	Calb FLC
COc1ccc(CNC(=O)CSc2nnc(C)c(=O)[nH]2)cc1	-0.4	12%	0.8	-6	-3.0	0.7	1	-3
Cc1ccc(C(=O)NC(=S)Nc2ccc(-c3ccc(CO)o3)cc2)cc1	?	12%	0.2	-3	-2.5	1.5	-16	-5
O=S(=O)(c1cccc2ccccc12)N1CCCCC1	4.5	4%	·	·	-0.5	·	7	2
CCOc1ccc(NC(=O)C2CCCN(S(=O)(=O)c3c(C)noc3C)C2)cc1 (stereo not given)	-0.6	·	-0.3	-2	0.8	0.4	-1	-8
c1ccc(-n2nnnc2-n2ccnc2)cc1	4.8	4%	-1.2	3	·	-1.5	-6	-8
O=C(COc1cccnc1[N+](=O)[O-])NCCc1ccc(Cl)cc1Cl	3.5	-7%	0.6	5	2.4	1.7	10	28
O=C1[C@H]2[C@@H](c3ccc(F)cc3)N3C(=O)N(c4ccccc4)C(=O)[C@@]3(Cc3ccc(Cl)cc3)[C@H]2C(=O)N1C1CCCCC1	-2.4	·	-0.4	5	1.0	2.1	18	7
Cc1cc2cc(CCNC(=O)c3ccc(Br)o3)c(=O)[nH]c2cc1C	4.3	12%	0.3	-5	·	2.6	4	1
Cc1ccc(COc2cccc3c2CCN(Cc2ccc(F)cc2)C3=O)cc1	1.0	·	0.9	2	·	-0.2	15	-3
O=C(CSc1ncn(-c2ccccc2)n1)Nc1nc2ccccc2s1	?	-4%	-1.1	-7	·	-0.7	3	58
Cc1ccc(-c2cc(C(F)(F)F)n3nc(C(=O)NCCCn4ccnc4)cc3n2)cc1C	7.7	3%	0.0	6	·	1.7	6	0
COc1ccccc1CC(NC(C)=O)C(=O)NC1CCN(S(=O)(=O)c2ccc(NC(C)=O)cc2)CC1 (stereo not given)	-0.9	·	0.9	-3	-1.3	5.0	-1	13
COc1ccc(C(=O)CSc2nnc(CN3CCCCC3)n2-c2ccc(Cl)cc2)cc1OC	-2.0	3%	0.9	-19	·	-7.4	-6	25
CCOc1cc(/C=C(\C#N)C(N)=O)ccc1OS(=O)(=O)c1ccccc1	-2.2	7%	0.5	-2	·	-1.0	-4	-8
CN(CC(=O)NCc1cccnc1)S(=O)(=O)c1ccc2c(c1)c(=O)n(C)c(=O)n2C	-0.7	?	-0.3	-3	4.4	2.8	-7	-7
Cc1noc(C)c1CSCC(=O)N(C)CC(=O)Nc1ccccc1Cl	2.5	-1%	0.4	-1	-0.8	3.1	5	-1
Cc1cccc(NC(=O)CN(C)S(=O)(=O)c2cccc3cccnc23)c1C	1.0	-9%	0.5	-10	-1.7	4.5	9	0
Nc1nc(SCc2ccc([N+](=O)[O-])cc2)c2ncn(C3OC(CO)C(O)C3O)c2n1 (stereo not given)	0.7	·	-0.4	-9	0.7	-0.1	1	-27
Cc1ccc(S(=O)(=O)NC(CC(C)C)C(=O)NCCCn2nc(C)cc2C)cc1 (stereo not given)	·	-6%	-0.9	0	-1.0	-9.6	·	·
CCc1ccc(N2C(=O)Nc3ccc(Br)cc3C2(O)C(=O)NCCN(C)C)cc1 (stereo not given)	0.9	7%	-0.3	-3	1.8	-4.1	-13	-4
COC(=O)c1cc2ccsc2n1CC(=O)N1CCCc2ccccc21	-3.3	6%	0.3	·	3.5	1.6	8	-7
CC1CN(C(=O)NCc2ccccc2)c2cc(Cl)ccc2O1 (stereo not given)	0.5	-3%	0.6	-3	-1.6	2.2	8	1
O=C(Nc1c(-c2cccs2)nc2ccccn12)c1ccccc1F	2.2	2%	0.0	-3	-12	-277	-11	2
O=C(Cc1nc2ccccc2[nH]c1=O)c1ccccc1	5.7	-7%	·	·	-0.5	·	7	-2
O=C(CN(Cc1ccco1)C(=O)CNS(=O)(=O)c1ccccc1)NC1CCCCC1	2.1	-2%	·	·	·	·	8	2

Further entries follow.
SMILES	RanGTP-Imp inh	Vif A3G	A1 inh	Beta cell apopt	AF4-AF9 inh	LANA-H2B inh	T cruzi repl	Calb FLC
Cc1oc2cc(Br)c(O)c(Br)c2c1C(=O)c1ccccc1	0.2	1%	-0.3	-3	-3.2	1.8	-6	22
COc1ccccc1NC(=O)CCS(=O)(=O)c1ccc2c(c1)oc(=O)n2C	3.1	·	-0.9	-7	-0.8	-1.3	-13	-15
CCOC(=O)c1c(NC(=O)c2cccnc2Cl)sc(C(=O)N(C)C)c1C	?	·	0.1	2	·	1.0	4	30
Cc1ccc(-n2nnc3c(=O)n(CC(=O)N4CCCC4)cnc32)cc1	2.8	-1%	-0.1	-3	3.5	10*	11	-1
S=C(NCCN1CCOCC1)Nc1cccc(Cl)c1	3.7	·	0.6	-10	·	0.4	-4	5
CCOc1cc(CNC(=O)CN2C(=O)c3ccccc3S2(=O)=O)ccc1OC	?	-9%	?	1	·	-2.4	7	3
CCOc1ccc(CSc2nc(C)cc(COC)c2C#N)cc1OCC	-0.2	-6%	-1.2	6	-2.8	-5.7	8	8
NS(=O)(=O)c1ccc(CCNC(=O)C2CCN(S(=O)(=O)c3ccc(Br)s3)CC2)cc1	24*	1%	0.2	0	0.2	-1.4	5	-10
CN(C)CCn1c(=O)n(C2CCCCC2)c(=O)c2c3c(sc21)CCCCC3	0.1	·	1.4	-6	7.5	-2.4	37	-1
Cc1nn(C)c(C)c1Sc1ccccc1N	3.8	-8%	-0.7	1	1.7	0.5	8	4
COc1ccc(/C=C2\SC(=S)N(CCC(=O)NC3=NCCS3)C2=O)cc1OC	-3.6	31%	-4.0	-4	-0.5	5.6	0	2
COc1cccc2cc(C(C)N(CCCN3CCOCC3)C(=O)Nc3ccc(Cl)cc3)oc12 (stereo not given)	-1.4	-3%	0.3	0	·	2.8	5	29
c1coc(CN2CCN(C(c3cccs3)c3nnnn3C3CCCC3)CC2)c1 (stereo not given)	-1.1	-3%	-0.2	-3	·	-0.5	-4	-6
CC(=O)c1ccc(N2CCN(C(C)C(=O)NC3CCCc4ccccc43)CC2)cc1 (stereo not given)	-1.7	·	1.1	-2	·	-4.1	23	-10
CC(O)Cc1nsc(NC(=O)c2ccc(Br)o2)n1 (stereo not given)	4.0	5%	-0.5	-2	·	2.2	-2	2
Cc1noc(C)c1/C=N/Nc1ccccn1	6.2	-3%	-1.1	-6	1.8	4.7	-2	1
O=C(O)c1ccc(N/N=C/c2ccc(-c3cccc(Cl)c3)o2)cc1	68*	24%	-5.2	-8	3.5	2.2	-38	-9
O=C(CCCOc1ccccc1)Nc1cccc(S(=O)(=O)N2CCCCCC2)c1	·	-3%	-0.5	-5	0.9	-3.1	·	·
COc1ccc(C2=NN(c3ccccc3)C(=O)/C2=C\c2ccc(O)c(OC)c2)cc1	0.6	?	0.1	-2	2.6	0.8	1	26
O=C(O)c1cccc(NC(=O)c2ccc3c(c2)C(=O)N(c2ccccc2)C3=O)c1	1.6	·	0.8	-10	-3.1	-2.6	-5	-17
COC(=O)[C@H](Cc1c[nH]c2ccccc12)NC(=O)Nc1ccccc1OC	9.5	6%	0.1	-1	0.6	-4.2	-8	3
